Bioassay records as filed in PubChem.
StopGo RLuc – FMDV 2A StopGo reporter, Renilla signal. 120,000 compounds, 0.32% hits. Potency, µM (top dose mostly 57.5 µM), for inactives: at the top dose signal change, negative = less light. HEK cells with a luciferase reporter of 2A StopGo recoding; active means well fitted falling curve with a large enough effect; inconclusive means small, poorly fitted or top-dose-only effect; inactive means no such curve, though single readings can be large or run the other way; note: nearly all actives have a fitted effect of over 55% in size; overnight with compound
StopGo FLuc – lowers the firefly signal of an FMDV 2A StopGo reporter; HEK cells with a luciferase reporter of 2A StopGo recoding; Potency, µM (doses to about 57.5 µM), inactives show top-dose signal change, negative = less light; 120,000 compounds, 0.23% hits; active = well fitted falling curve with a large enough effect; inconclusive = small, poorly fitted or top-dose-only effect; inactive = no such curve, though single readings can be large or run the other way; note: nearly all actives have a fitted effect of over 60% in size; overnight with compound
* marks the source's active call; other numbers are inactive results; ? = inconclusive; & = joins results of further samples; [ ] = dose if it differs, or a comment. % is set by controls: 0 for no effect and ±100 for the full control effect; potency is the fitted concentration of half-maximal effect. These rows are one share of the data. The share of hits here may be higher or lower than overall.

molecule	StopGo FLuc	StopGo RLuc
Cc1cc2oc(=O)cc(CN3CCc4cc(S(N)(=O)=O)ccc43)c2cc1C	21.2%	8.4%
COc1ccc(C)cc1NC(=O)CNC(=O)CNc1cccc(Cl)c1	-5.6%	-1.7%
N#Cc1ccc(OCc2ccc(C=O)o2)cc1	0.0%	0.6%
Cc1ccc(Cl)c2c(C=O)c(C(C)(C)C)[nH]c12	17.3%	-4.5%
O=C(CCS(=O)(=O)c1cc2c(cc1Cl)NC(=O)CO2)NCc1ccc(Cl)cc1	-6.4%	-10.5%
COc1cccc(NS(=O)(=O)c2ccc(-c3cc(C)no3)s2)c1	-20.8%	102.7%[activator]
Nc1ncnc(Nc2ccc(Cl)c(Cl)c2)c1[N+](=O)[O-]	3.6%	3.2%
OC(c1cn2cc(-c3ccccc3)nc2s1)(C(F)(F)F)C(F)(F)F	?	?
CCCCC(NC(=O)C(c1ccccc1)C1CCCC1)c1ccccc1 (centres undefined)	4.0%	13.5%
CC1=C(C)CC(C(=O)NCCN2CCOCC2)C(C(=O)O)C1 (centres undefined)	9.1%	2.4%
COc1ccc(OC)c(-n2cnc3cc(C(=O)NC4CCCC4)ccc32)c1	-12.3%	0.0%
O=C(CCc1c[nH]c2ccccc12)Nc1ccccc1	181.2%[activator]	4.9%
CC1Cc2cc(C(=O)c3cc4cc(Br)ccc4o3)ccc2N1S(C)(=O)=O (centres undefined)	?	?
CC(=O)Nc1nc2c(C)cc(NS(=O)(=O)Cc3ccccc3)cc2s1	0.0%	107.8%[activator]
CN(CCC(=O)NC(N)=O)C(c1ccccc1)c1ccccc1	-2.2%	-7.2%
CCOC(=O)c1cnc(Nc2ccc(F)cc2)c2ccccc12	45.6%[activator]	15.0%
CCOC(=O)c1ccccc1NC(=O)CN(c1cccc(C)c1C)S(=O)(=O)c1ccccc1	-17.1%	5.9%
O=C1CS(=O)(=O)C2(C(=O)Nc3ccccc32)N1c1cccc(Cl)c1 (centres undefined)	-12.7%	-6.3%
CC1C(c2ccccc2)=[N+]([O-])C(C)(c2ccc(Br)cc2)N1O (centres undefined)	-9.3%	52.4%[activator]
NCCCNCCSP(=O)(O)O	-12.7%[11.5 µM]	-2.7%[11.5 µM]
O=C1/C(=C/c2ccc(C(F)(F)F)cc2)CCc2ccccc21	0.0%	3.0%
COc1ccccc1CNCCc1ccccc1	1.1%	-5.6%
COc1cccc(CNS(=O)(=O)c2cc(-c3cnn4c(C)cc(C)nc34)ccc2OC)c1	40.6%[activator]	99.8%[activator]
COc1cccc(NC(=O)c2c(N3CCCC3=O)c3cc(C)ccc3n2C)c1	4.4%	8.5%
Cc1c(C(=O)N2CCC(C(=O)Nc3ccc4c(c3)OCO4)CC2)oc2ccc(F)cc12	66.4%[activator]	-11.3%
CCCCOC(=O)c1ccc(NC(=O)/C(C#N)=C/c2ccc(-c3ccccc3)o2)cc1	-2.6%	-7.7%
Cc1ccc(C=O)n1-c1ccc(Cl)cc1	-4.3%	-10.0%
O=C(Cn1c(=O)ccc2cc(S(=O)(=O)N3CCCC3)ccc21)Nc1ccc(Cl)cc1	-9.7%	-0.6%
Cc1ccccc1C(=O)Nc1cccc(-c2cn3cccnc3n2)c1	19.5%	0.4%
O=C(NCc1ccccn1)c1ccc2c(c1)-c1ccccc1C2	0.0%	12.0%
CCOc1ccc2c(c1)cc(C(=O)NCCOC)n2C	0.0%	19.7%
Cc1ccccc1-c1noc(-c2ccc(NC3CCCC3)c([N+](=O)[O-])c2)n1	0.6%	-2.9%
O=C(COc1c(Cl)cccc1Cl)Nc1cccc2cccnc12	-4.5%	-3.9%
COc1cccc2sc(N(Cc3cccnc3)C(=O)COc3ccccc3)nc12	58.0%[activator]	48.7%[activator]
CC(C)NC(=O)c1cc(Cl)ccc1Cl	0.0%	8.9%
COc1cc(/C=C(/C#N)c2nc3ccccc3[nH]2)ccc1OCc1ccccc1C#N	44.7%[activator]	28.7%
CCOC(=O)c1c(C)oc2nc(C)nc(NCCc3ccc(SC)cc3)c12	-8.6%	-7.5%
O=C(c1ccc(F)cc1)c1ccccc1C(=O)N1CCN(C(=O)CC2CCCC2)CC1	-7.0%	-18.3%
Cn1c(=O)ccn(CC(=O)Nc2nc(C(C)(C)C)cs2)c1=O	11.1%	-9.6%
Clc1ccc(-c2cn[nH]c2)cc1	?	-4.6%[1.06 µM]
CCOC(=O)Cc1cc(=O)n2[nH]c(NCc3ccc(CC)cc3)nc2n1	31.1%	12.1%
CCOCCCn1c(=N)c(C(=O)NC(C)c2ccccc2)cc2c(=O)n3cccc(C)c3nc21 (centres undefined)	-8.1%	-3.2%
CN1CCN(c2nc3ccccc3nc2C(=O)Nc2ccc(OC(F)(F)F)cc2)CC1	-10.1%	-14.2%
Cn1c(=O)[nH]c(=O)c2c1nc(N1CCC(Cc3ccccc3)CC1)n2CCCc1ccccc1	1.0%	-11.3%
COC(=O)c1cc2oc3ccccc3c2n1Cc1nc(-c2ccccc2C)oc1C	0.0%	-14.1%
COc1cccc2cc(C(=O)N(C)C3CCN(C)CC3)c(=O)oc12	3.4%	0.8%
CCCCN(C)S(=O)(=O)NC1CCCN(c2ncccn2)C1 (centres undefined)	-9.3%	54.6%[activator]
Cc1ccc(SCCNC(=O)CN(c2ccccc2)S(=O)(=O)N(C)C)cc1	18.7%	42.3%[activator]
COc1ccccc1-c1noc(CSc2nc3ccccc3o2)n1	98.6%[activator]	-10.7%
O=C(NCCCc1nc2ccccc2n1Cc1ccc(F)cc1)C1CCCCC1	-11.4%	7.1%
CCC(C)(C)C1CCc2c(sc(NC(=O)C3CC4CCC3C4)c2C#N)C1 (centres undefined)	0.9%	1.6%
Cc1ccc(NC(=O)CN2c3ccc(S(N)(=O)=O)cc3CC2C)c(F)c1 (centres undefined)	17.6%	62.0%[activator]
CCCOC(=O)c1cc(-c2ccc(OC)cc2)nc2ccccc12	24.8%	2.5%
COc1cc(NC(=O)CCN2CCN(CCO)CC2)cc(OC)c1	-11.5%	-6.7%
Cc1ccc(-c2cnoc2NC(=O)CSc2nc(-c3ccccc3)cc(=O)[nH]2)cc1	48.3%[activator]	64.5%[activator]
COCCn1c(SCC(=O)c2ccc3c(c2)OCO3)nc2cc(C(=O)NC(C)C)ccc2c1=O	-9.3%	-13.3%
CCOc1ccccc1C(=O)N(Cc1ccccc1)C1CCS(=O)(=O)C1 (centres undefined)	10.3%	4.0%
O=S(=O)(NC1=NCN(Cc2ccccn2)CN1)c1ccccc1	9.3%	5.5%
Cc1cccc(C(=O)N2CCc3cc(CNS(=O)(=O)c4ccc(Cl)s4)ccc32)c1	-7.0%	19.0%
CC(=O)Nc1ccc(NC(=O)c2csc(NC(C)C)n2)cc1	20.4%	-5.2%

(more compounds)
molecule	StopGo FLuc	StopGo RLuc
Cc1ccc(C(O)CNC(=O)c2cccc(C)c2)cc1 (centres undefined)	72.9%[activator]	19.0%
O=C(CSc1ccc(F)cc1)c1ccc2c(c1)-c1ccccc1C2	53.6%[activator]	10.3%
O=C(Nc1ccc2c(c1)OCO2)C1CCN(c2ccc3nncn3n2)CC1	70.7%[activator]	-11.0%
C/C(CCc1oc2ccc(C)cc2c1-c1ccc(C)o1)=N\O	5.4%&25.0%	8.6%
Cn1c(SCc2csc(-c3ccc(Cl)cc3)n2)nnc1C1CC1	60.1%[activator]	-11.1%
O=C(c1nn(Cc2ccccc2)c(=O)c2ccccc12)N1CCN(c2ccc(O)cc2)CC1	17.8%	278.2%[activator]
O=c1c(S(=O)(=O)c2ccccc2)cn(Cc2cccc(F)c2)c2cc(N3CCOCC3)c(F)cc12	-3.8%	15.3%
CC(C)(C)C(=O)Nc1ccc(Cl)c(-c2nc3ccccc3[nH]2)c1	-7.1%	38.6%[activator]
COc1cc(Nc2nc3ccccc3nc2C(=O)OC(C)C)cc(OC)c1	120.0%[activator]	1.0%
CCCCN(C)c1ncnc2c1cnn2-c1cccc(Cl)c1	263.7%[activator]	-11.1%
CCN(CC)c1ccc(NS(=O)(=O)c2cc(C)cc(C)c2)cc1C(=O)O	-5.3%	-7.2%
Cc1ccc(Sc2ccc(N=CN(C)C)cc2)cc1C	59.7%[activator]	54.1%[activator]
COC(=O)CCn1c(SC(C)C(=O)c2ccccc2)nc2ccccc2c1=O (centres undefined)	10.0%	6.3%
CS(=O)(=O)c1ncc(Cl)c(C(=O)Nc2c(C(=O)c3ccc(Cl)cc3)oc3ccccc23)n1	-3.1%	1.4%
OCCCNC(=S)Nc1ccc(F)cc1	-7.3%	9.2%
O=C(NCC#Cc1ccccc1)NNC(=O)c1cccnc1	-5.5%	-2.7%
Cc1ccc(NC(=O)Cn2ccn(-c3ccccc3)c(=O)c2=O)cc1	0.0%	3.8%
COc1ccc(-n2nc(C(=O)N3CCN(c4cccc(C)c4)C(C)C3)c3c4ccccc4n(C)c3c2=O)cc1Cl (centres undefined)	-10.6%	-15.3%
Cc1cc(C(=O)Cn2c(=O)c3c(ncn3C3CCCC3)n(Cc3ccccc3)c2=O)c(C)n1C	28.7%	50.9%[activator]
Cc1ccc(C(CNC(=O)c2cc(=O)c3cc(C)c(C)cc3o2)N2CCCCC2)o1 (centres undefined)	-12.9%	-15.2%

Some of the entries so far, as labelled records.
molecule: OCCCNC(=S)Nc1ccc(F)cc1
  StopGo FLuc = -7.3%
  StopGo RLuc = 9.2%

molecule: O=C(NCC#Cc1ccccc1)NNC(=O)c1cccnc1
  StopGo FLuc = -5.5%
  StopGo RLuc = -2.7%

(listing goes on)
molecule	StopGo FLuc	StopGo RLuc
CNC(=O)NC(=O)CN(Cc1ccc2c(c1)OCO2)C1CCCC1	25.1%	-0.8%
CC(=O)c1ccc(OC(=O)c2cc3ccccc3oc2=O)cc1	6.4%	-3.5%
CN(C(=O)CSc1nnc(N)s1)C1CCCCC1	18.5%	-8.3%
COc1ccc(NC(NC(=O)C(C)C)C(Cl)(Cl)Cl)cc1 (centres undefined)	17.1%	12.4%
O=C(NC1CCCC1)c1cc(-c2ccc(Cl)cc2)nc2ccccc12	5.8%	3.9%
Cc1cc(C)c(NC(=O)CSc2ccnc(=O)[nH]2)c(C)c1	-14.6%	-12.2%
Cc1ccc(NC(=O)c2oc3ccccc3c2NC(=O)C2CCCCC2)cc1	-18.0%	-4.5%
N#CCCSc1nc(N2CCOCC2)c2c(c1C#N)CCCC2	-19.0%	-15.2%
CCN(CC)S(=O)(=O)c1ccc2c(c1)c(=O)c(C(=O)N1CCN(c3ccccc3OC)CC1)cn2C	-17.3%	0.8%
COc1ccc(C(=O)Nc2ccc(S(=O)(=O)Nc3cnc4ccccc4n3)cc2)cc1	14.9%	-31.3%
COC(=O)[C@@H](C)NC(=O)NCC(c1ccccc1)c1ccccc1	16.9%	17.4%
O=C(Nc1cccnc1Oc1ccccc1)c1cc(F)ccc1Br	-2.0%	4.3%
COc1cc(OC)c(Nc2ncnc3onc(-c4cccc(Cl)c4)c23)cc1Cl	-7.3%	-15.5%
Cc1ccc(NC(=O)CN2C(=O)CC(c3ccc(C)c(C)c3)=Nc3ccccc32)cc1	40.7%[activator]	-9.5%
Cc1cccc(-c2nc3scc(CCNS(=O)(=O)c4ccc(F)cc4C)n3n2)c1	-21.1%	128.0%[activator]
CC(=O)Nc1ncc2c(n1)CC(c1ccc(N(C)C)cc1)CC2=O (centres undefined)	14.1%	-3.4%
COc1cccc(CNC(=O)c2sc3nc[nH]c(=O)c3c2C)c1	-15.8%	9.1%
COc1ccc(NC(=O)CCNS(=O)(=O)c2ccc3c(c2)CCCC(=O)N3)cc1Cl	13.2%	23.9%
CCCCCC(=C/c1ccccc1)/C=N/Nc1nncc2ccccc12	116.3%[activator]	192.8%[activator]
Cc1cc(C)n2nc(CNS(=O)(=O)c3ccc(F)cc3)nc2n1	24.5%	5.5%

Structural class: the entries above with a tert-butyl group (3)
molecule	StopGo FLuc	StopGo RLuc
Cc1ccc(Cl)c2c(C=O)c(C(C)(C)C)[nH]c12	17.3%	-4.5%
Cn1c(=O)ccn(CC(=O)Nc2nc(C(C)(C)C)cs2)c1=O	11.1%	-9.6%
CC(C)(C)C(=O)Nc1ccc(Cl)c(-c2nc3ccccc3[nH]2)c1	-7.1%	38.6%[activator]

Next section.
molecule	StopGo FLuc	StopGo RLuc
Cc1c(-c2ccccc2)oc2c(C(=O)NCCOc3ccccc3)cccc2c1=O	-3.3%	-3.1%
CCn1c2c(c(=O)[nH]c1=O)C(c1ccccc1)C1=C(CC(C)(C)CC1=O)N2 (centres undefined)	6.3%	5.5%
CCOC(=O)c1cc(-c2ccc(C)cc2)n(CC(=O)NC2CCCCCC2)c1C	-13.2%	3.9%
CCOc1ccc(NS(=O)(=O)c2ccc(C(=O)NC3CCN(Cc4ccccc4)CC3)cc2)cc1	-9.7%	-14.5%
COc1ccc(NCc2cc3cc4c(cc3n(CC(=O)Nc3cc(C)ccc3C)c2=O)OCCO4)cc1	1.4%	2.5%
COC(=O)CC1CCCCN1CC(=O)NC(=O)NCc1ccco1 (centres undefined)	-8.9%	-5.8%
CCc1cccc(NC(=O)c2nc(-c3ccncc3)no2)c1	40.3%[activator]	4.7%
